VACV Venus inh – inhibitors of vaccinia virus (Venus reporter). AID 720580. 330,000 tested, 0.46% active. Vaccinia virus Venus reporter expression, fluorescence. Potency, µM (top dose mostly 36.5 µM), for the others: at the highest dose activity change, negative = inhibition, most hits filed as inhibitors; active means well fitted inhibition curve with a large enough effect; inconclusive means small, poorly fitted or top-dose-only effect; inactive means no such curve, though single readings can be large or run the other way; tested in A549 cells; further: nearly all actives have a fitted effect of over 30% in size; inactives centre near -10
VACV mCherry inh – inhibitors of vaccinia virus infection (mCherry reporter signal). Vaccinia virus mCherry reporter infection, fluorescence; about a quarter of the inactives have no number. Potency, µM (top dose mostly 36.5 µM), without a hit: top-dose activity change, negative = inhibition, hits mostly inhibitors. 310,000 tested, 0.63% active. AID 720579; active = well fitted inhibition curve with a large enough effect; inconclusive = small, poorly fitted or top-dose-only effect; inactive = no such curve, though single readings can be large or run the other way; tested in A549 cells; further: nearly all actives have a fitted effect of over 35% in size; inactives centre near -10
* marks the source's active call; other numbers are inactive results; i = inactive; ? = inconclusive; nt = no result given; & = joins results of further samples. On the % scale 0 is the no-effect control and ±100 the full control effect; potency means the concentration at half of the fitted maximal effect.

SMILES	VACV Venus inh	VACV mCherry inh
c1csc(C2C3=C(Nc4ncnn42)c2ccccc2OC3)c1 (stereo not drawn)	-21%	i
O=C(CCNS(=O)(=O)c1ccccc1F)N1CCN(Cc2ccccc2)CC1	-10%	-4%
COc1cccc(Cn2c(=O)n(-c3ccccc3C)c(=O)c3c2c2cc(C)ccc2n3C)c1	-8%	-21%
O=c1cc(-c2ccc(O)cc2)oc2c(C3O[C@H](CO)[C@@H](O)[C@H](O)[C@H]3O)c(O)cc(O)c12 (stereo partly drawn)	-3%	-14%
COc1ccc(-n2nc3ccc(NC(=O)c4cc5ccccc5o4)cc3n2)cc1Cl	-7%	-14%
CC1(C)C2CC=C(/C=N/NC(=O)c3ccc(Cl)cc3)C1C2 (stereo not drawn)	-23%	-30%
CCN(CC)C(=O)c1sc2c(c1C)c(=O)n(-c1ccc(OC)cc1OC)c(=O)n2CC(=O)c1ccccc1	-23%	-2%
C=CCOC(=O)/C=C/C(=O)NC(N)=O	-7%	i
CCN(CC)S(=O)(=O)c1ccc(NC2=NS(=O)(=O)c3ccccc32)cc1	3%	-8%
CCN(CC)C(=O)[C@H]1C[C@H](CC(=O)NCc2cccc(C(F)(F)F)c2)C(=O)N2CCc3c([nH]c4cc(CCC(=O)N(C)C)ccc34)[C@]12C	-6%	-23%
C[n+]1ccccc1COc1ccc(C(C)(C)C)cc1	?	-18%
Cc1cccc(NS(=O)(=O)c2c(C)nc3sccn3c2=O)c1C	-17%	-22%
CC1CCN(CC(=O)Nc2ccccc2-c2ccccc2)CC1	-16%	-19%
O=S1(=O)CCC(SCc2nc3sccn3c2Br)C1 (stereo not drawn)	1%	-9%
OC(c1ccc(OCc2ccccc2)cc1)c1nnc(-c2ccccc2)o1 (stereo not drawn)	-21%	nt
N#Cc1c(N2CCN(C(=O)c3ccccc3Cl)CC2)nc(-c2ccccc2)c2c1CCCC2	-6%	0%
Cc1ccc(C(=O)Nc2c(C)nc3ccccn3c2=O)cc1	-9%	-16%
CCCCn1c(N)c(NCC(C)C)c(=O)[nH]c1=O	4%	10%
COc1ccc(-c2nnc(SC)nc2-c2ccc(OC)c([N+](=O)[O-])c2)cc1[N+](=O)[O-]	-11%	-9%
O=C(O)CSc1c(-c2ccccc2)c2cc(Cl)ccc2[nH]c1=O	-16%	-10%
CC(=O)c1cccc(NC(=S)NC(=O)c2ccc(Br)cc2)c1	-28%	-23%
COc1ccccc1CN1CC(C(=O)NCc2ccc(C)c(F)c2)CCC1=O (stereo not drawn)	-16%	-8%
O=C(CSc1nc2cccc(F)c2c(=O)n1-c1ccccc1)Nc1ccc2c(c1)CCC2	-6%	i
Cc1noc(-c2ccc(-c3noc(-c4cccc(Cl)c4)n3)cc2)n1	2%	-13%
CC(=O)/C(N=Nc1ccc(-n2ccc(C(F)(F)F)n2)cc1)=C(\C)O	-11%	?
CCc1nnc(NC(=O)CSc2nc3ccc(OC)cc3[nH]2)s1	-14%	i
COc1ccc(OC)c(S(=O)(=O)N2CCC3(CC2)OCCN3S(=O)(=O)c2cccs2)c1	-17%	i
CCCc1nn2c(=O)cc(COc3ccc(/C=C(\C#N)C(=O)Nc4ccccc4)cc3)nc2s1	3%	-9%
COC(=O)[C@]1(C)N[C@H](CN(C)S(=O)(=O)c2ccccc2)[C@@H]2C(=O)N(Cc3ccccc3)C(=O)[C@@H]21	0%	-15%
O=C(Nc1cccc([N+](=O)[O-])c1)C12CC3CC(C1)CC(n1cnc([N+](=O)[O-])n1)(C3)C2	-11%	nt
COc1ccc(-n2nc(C(=O)NCC(=O)Nc3cc(C)ccc3OC)c3ccccc3c2=O)c(OC)c1	0%	-1%
Cc1c(C(=O)c2ccccc2)c(=O)n(C)c(=O)n1C	-5%	i
COc1ccc2c(C#N)c3ccccn3c2c1	-14%	-9%
Cc1ccc(NC(=O)c2cc(NC(=O)c3ccccc3C(=O)O)ccc2N2CCCCC2)cc1	-21%	-21%
CCN(CC)CCNc1nc(-n2nc(C)cc2C)nc2sc3c(c12)CC(C)(C)OC3	?	?
CC(=O)N1CCN(CC(=O)Nc2ccccc2C(=O)NCc2ccc(C)cc2)CC1	-4%	i
COc1ccc(NC(=O)CSc2nnc(C(C)C)n2N)cc1	-4%	nt
O=C(CN1C(=O)c2cccc3cccc(c23)C1=O)N1CCCCC1	-14%	-17%
Cc1ccc(-n2ncc3c2CCCC3NC(=O)CSc2ccccn2)cc1C (stereo not drawn)	-14%	-7%
CCn1c(-c2ccccc2)csc1=Nc1ccc(O)cc1	-18%	?

Whole records, looked up by structure. Screens in order: VACV Venus inh | VACV mCherry inh
Listed for O=C(O)CSc1c(-c2ccccc2)c2cc(Cl)ccc2[nH]c1=O → -16% | -10%
Listed for CCCc1nn2c(=O)cc(COc3ccc(/C=C(\C#N)C(=O)Nc4ccccc4)cc3)nc2s1 → 3% | -9%
Listed for CCn1c(-c2ccccc2)csc1=Nc1ccc(O)cc1 → -18% | ?
Listed for N#Cc1c(N2CCN(C(=O)c3ccccc3Cl)CC2)nc(-c2ccccc2)c2c1CCCC2 → -6% | 0%
Listed for CCN(CC)C(=O)c1sc2c(c1C)c(=O)n(-c1ccc(OC)cc1OC)c(=O)n2CC(=O)c1ccccc1 → -23% | -2%

The main list resumes; the six compounds before the break are reprinted first.
SMILES	VACV Venus inh	VACV mCherry inh
CCN(CC)CCNc1nc(-n2nc(C)cc2C)nc2sc3c(c12)CC(C)(C)OC3	?	?
CC(=O)N1CCN(CC(=O)Nc2ccccc2C(=O)NCc2ccc(C)cc2)CC1	-4%	i
COc1ccc(NC(=O)CSc2nnc(C(C)C)n2N)cc1	-4%	nt
O=C(CN1C(=O)c2cccc3cccc(c23)C1=O)N1CCCCC1	-14%	-17%
Cc1ccc(-n2ncc3c2CCCC3NC(=O)CSc2ccccn2)cc1C (stereo not drawn)	-14%	-7%
CCn1c(-c2ccccc2)csc1=Nc1ccc(O)cc1	-18%	?
O=[N+]([O-])c1c(NCCO)cc(N2CCN(Cc3ccc4c(c3)OCO4)CC2)c2nonc12	-9%	-18%
CCOC(=O)C1CCN(C(c2ccc(F)cc2)c2sc3nc(-c4ccco4)nn3c2O)CC1 (stereo not drawn)	-2%	1%
c1ccc(-c2cn(-c3ccccc3)c3ncnc(N4CCCCC4)c23)cc1	0%	i
Cn1cccc1/C=N/NC(=O)c1cccnc1	-10%	i
O=C1C2CCc3ccccc3C2N1c1ccccc1 (stereo not drawn)	1%	i
Cc1ccccc1CNC(=O)Cc1ccccc1[N+](=O)[O-]	-5%	-12%
CCCCCOc1ccc(/C=C/C(=O)Nc2sc(C(C)=O)c(C)c2C(=O)OCC)cc1OC	-9%	-16%
COc1ccc(OC)c(CCNc2nc3ccccc3c3nc(-c4cccnc4)nn23)c1	-5%	-18%
Cn1c(=O)c2c(nc(NCCc3ccccc3)n2Cc2ccc(Cl)c(Cl)c2)n(C)c1=O	-14%	-18%
O=S(=O)(c1ccc(Br)cc1)c1nc(-c2cccs2)oc1SCc1ccccc1F	-8%	-2%
CC(=O)Nc1ccc(C(=O)OCC(=O)NCc2ccccc2)cc1	-25%	-13%
COc1cccc2c1Oc1ncccc1N(C(=O)Nc1cccc(Cl)c1)C2	-23%	-19%
CCOC(=O)c1ccc2nc(CCC(=O)N[C@H](C(=O)OC)C(C)C)c(=O)n(CC)c2c1	-3%	i
CCc1nc2ccc(C(=O)N(C)Cc3ccccc3)cn2c1N(C)Cc1ccc(OC)cc1	9%	i
CCCN1C2CCCC1CC(NC(=O)c1ccccc1F)C2 (stereo not drawn)	-24%	-21%
Cc1ccc(C(=O)NCC(=O)OCC(=O)N(CC(C)C)c2c(N)n(Cc3ccccc3)c(=O)[nH]c2=O)cc1	-11%	-6%
Cc1ccc2ncc(C)c(C)c2c1	-3%	-12%
COC(=O)CN1C(C(=O)c2ccccc2)=C(OC(=O)c2ccc(F)cc2)c2ccccc2S1(=O)=O	-18%	-18%
COc1ccc(S(=O)(=O)Nc2ccc3c(c2)N(C(C)=O)CCC3)cc1OC	-10%	-2%
O=C(CSc1ncc(-c2ccccc2)[nH]1)Nc1ccccc1	-17%&-16%	-15%
CCOc1ccccc1NC(=O)CN1C(=O)CC(c2ccc(C)c(C)c2)=Nc2ccccc21	-12%	-14%
Cc1cc(C)c(NC(=O)CSc2ccc(-c3cccnc3)nn2)c(C)c1	-9%	i
CCCc1cc(=O)n2[nH]c(-c3ccc(C)cc3)cc2n1	-20%	nt
O=C(c1ccccc1)N(Cc1ccc(F)cc1)C1CCS(=O)(=O)C1 (stereo not drawn)	-7%	-10%
COc1ccc(CNC(=O)CCSCc2ccccc2Cl)c(OC)c1	-12%	-4%
Cc1ccc2nc(COc3ccccc3NC(=O)COc3ccccc3Cl)cc(=O)n2c1	-14%	-9%
Cc1cccn2c(=O)c(C(=O)NC(C)c3ccccc3)c(O)nc12 (stereo not drawn)	-19%	-20%
O=C1CNC(=O)/C1=C\c1ccc(O)cc1	2%	-10%
CCCCC(=O)N(C)c1c(C)nc2ccc(C(=O)N3CCNC(=O)C3)cn12	9%	-5%
O=C(COc1ccccc1)NC(=S)Nc1cccc(NC(=O)c2ccccc2Cl)c1	-26%	-12%
COc1ccc(CNc2oc(-c3ccc(COc4ccc(Cl)cc4)o3)nc2C#N)cc1	-19%	-26%
CCc1ccc(S(=O)(=O)N2c3ccc(C)cc3C3CN(C)CCC32)cc1 (stereo not drawn)	-22%	-9%
O=C(Cn1cnc2cc([N+](=O)[O-])ccc2c1=O)NCCc1ccc(Cl)cc1	-1%	-6%
CCCC(=O)N(c1ccc(OCC)cc1)C1C=CS(=O)(=O)C1 (stereo not drawn)	-7%	-9%
COCCNC(=O)C1CCN(S(=O)(=O)N2CCC3(CC2)OCCO3)CC1	4%	-12%
CCc1ccccc1-n1c(SCC(=O)Nc2ccc3c(c2)OCCO3)nc2[nH]ncc2c1=O	-15%	i
O=C(Nc1cccc(S(=O)(=O)N2CCCC2)c1)c1cccc(OC(F)F)c1	-10%	-4%
CC(=O)Nc1ccc(C(=O)N2c3ccccc3N=C(c3ccc4c(c3)OCO4)C2C(=O)NCc2ccccc2)cc1 (stereo not drawn)	-11%	-30%
CNS(=O)(=O)c1cc(C(=O)NCc2ccco2)ccc1Cl	-40%	nt
COc1ccc(CC(=O)NC(C)c2ccc(S(N)(=O)=O)cc2)cc1S(=O)(=O)N1CCOCC1 (stereo not drawn)	-6%	-14%
Cn1c(-[n+]2c(-c3ccccc3)cc(-c3ccccc3)cc2-c2ccccc2)nc2c([N+](=O)[O-])cccc21	?	-9%
CCOC(=O)c1cccnc1NC(=O)c1ccncc1	-16%	i
O=S(=O)(Nc1ncccn1)c1ccc(F)cc1	-7%	-9%
CCN(CC)S(=O)(=O)c1ccc(C(=O)Oc2cc(C)[nH]c(=O)c2[N+](=O)[O-])cc1	-10%	i
COc1ccc(-c2nc(SCC(=O)NC3CCCC3)c(-c3ccc(F)cc3)[nH]2)cc1OC	-12%	-10%
CC(=O)N1CCC(O)(c2ccc3c(c2)OCO3)CC1	-12%	i
COc1ccc([C@H]2Cc3cc(O)cc(O)c3C(=O)O2)cc1O	-17%	-1%
O=C(c1ccc2c(c1)N(Cc1ccccc1)C(=O)c1ccccc1S2(=O)=O)N1CCCCCC1	-8%	-19%
OCCn1c(SCCOc2ccccc2F)nc2ccccc21	-21%	-24%
CC(=O)OCC(=O)[C@@]1(O)CCC2C3CCC4=CC(=O)CC[C@@]4(C)[C@]3(F)C(O)C[C@]21C (stereo partly drawn)	-5%	-15%
COc1ccc(CCC(=O)NCCc2ccc(Cl)cc2)cc1	1%	-2%
CCOC(=O)c1ccccc1NC(=O)c1sc2nc3n(c(=O)c2c1C)CCCC3	0%	-5%
CCOC(=O)NC(NC(=S)Nc1ccccc1OC)C(Cl)(Cl)Cl (stereo not drawn)	-19%	-17%
S=C(NCCN1CCOCC1)Nc1ccc(Cl)cc1Cl	-7%	i
COCCNc1ncnc2c1ncn2[C@H]1CN(Cc2cccs2)C[C@@H](CO)O1	13%	-11%
CCOc1ccc(-n2c(O)c(/C=N/NC(=O)C3COc4ccccc4O3)c3ccccc3c2=O)cc1 (stereo not drawn)	-14%	-15%
Cc1cccc(C(=O)NCC(=O)NC(C)c2ccc(-n3ccnc3)cc2)c1 (stereo not drawn)	-11%	-12%
COc1ccc(NC(=O)CSc2nnc(Cc3cccn3C)n2-c2ccc(OC)cc2)cc1	-4%	-4%
COC(=O)C(NC(=O)CCC(=O)NC(C(=O)OC)c1ccccc1)c1ccccc1 (stereo not drawn)	-6%	i
C=C(C)C1CC=C(C)C(=NNC(=O)c2ccncc2)C1 (stereo not drawn)	-2%	i

High-throughput results as filed in PubChem BioAssay.
